PABP FP inh = PABP poly(A) RNA binding inhibitors, primary screen, biochemical, fluorescence polarization, uHTS. 290,000 tested, 1% active. Polyadenylate-binding protein 1 (Homo sapiens), P11940. inhibition, % at 35 µM;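 active = 50% or more with normal probe brightness, or confirmed in later tests; inconclusive = above 50% with abnormal brightness, or retests that disagree; inactive = below 50% or failed in later tests; about a fifth of its hits are not listed in these tables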;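 also: calls also rest on retests at 20 µM and on dose response follow-up; controls were probe without protein and protein plus probe with vehicle; some compounds called inactive have numbers as strong as hits; many hits fall short of the cut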
Target sequence (P11940 whole entry, looked up): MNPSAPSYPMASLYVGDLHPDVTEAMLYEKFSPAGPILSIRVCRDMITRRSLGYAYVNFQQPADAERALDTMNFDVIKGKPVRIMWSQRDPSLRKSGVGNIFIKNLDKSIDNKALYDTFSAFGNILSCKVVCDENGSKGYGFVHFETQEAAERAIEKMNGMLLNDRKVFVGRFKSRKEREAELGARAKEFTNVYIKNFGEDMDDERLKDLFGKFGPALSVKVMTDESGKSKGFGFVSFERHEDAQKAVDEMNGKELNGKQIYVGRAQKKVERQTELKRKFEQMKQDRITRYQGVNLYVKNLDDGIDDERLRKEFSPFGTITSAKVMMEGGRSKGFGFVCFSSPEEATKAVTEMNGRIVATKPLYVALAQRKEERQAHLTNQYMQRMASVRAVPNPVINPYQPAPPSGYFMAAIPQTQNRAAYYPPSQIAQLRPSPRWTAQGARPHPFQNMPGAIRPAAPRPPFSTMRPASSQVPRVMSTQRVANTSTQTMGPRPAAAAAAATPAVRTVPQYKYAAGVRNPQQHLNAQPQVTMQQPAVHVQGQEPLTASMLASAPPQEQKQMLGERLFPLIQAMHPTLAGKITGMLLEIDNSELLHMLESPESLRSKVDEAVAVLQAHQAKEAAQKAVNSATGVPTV
eIF4H FP inh = human eIF4H binding inhibitors, primary screen, translation initiation inhibitor project, biochemical, uHTS, fluorescence polarization. Eukaryotic translation initiation factor 4H (Homo sapiens), Q15056. eIF4H fluorescence polarization binding assay. inhibition, % at 35 µM. 290,000 tested, 0.94% active. AID 2012, 2009;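 active = 50% or more with normal probe brightness, or confirmed in later tests; inconclusive = above 50% with abnormal brightness, or retests that disagree; inactive = below 50% or failed in later tests; about a fifth of its hits are not listed in these tables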;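 also: calls also rest on retests at 20 µM and on dose response follow-up; 0% = protein and probe with vehicle and 100% = probe without protein; strong numbers were not always called active; many hits fall short of the cut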
MT1-MMP act inh = blockers of MT1-MMP proenzyme processing, primary screen, HT1080 RFP-PRO-GFP cells, GFP/RFP fluorescence; Matrix metalloproteinase-14 (Homo sapiens), P50281; GFP/RFP ratio fluorescence, overnight; percent of plate control window, DMSO zero; GFP/RFP ratio change, % at 20 µM; 360,000 tested, 0.061% active; AID 651647, 2012;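 active = GFP/RFP ratio change of at least 30% with cell ATP level not reduced by more than half and red fluorescence within 50% of control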; also: strong numbers were not always called active
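Assay system: RFP-PRO-GFP reporter HT1080 cells; read-out basis: GFP/RFP fluorescence ratio; benchmarks: DMSO wells and RFP-L50D-GFP cells; doses: 20 µM single dose, 1% DMSO; schedule: overnight cell settling, then overnight compound exposure, 37 °C, 5% CO2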
UUG fidelity = modulators of yeast start codon fidelity, primary screen, whole organism, S. cerevisiae, single point, plate reader; 350,000 tested, 0.13% active; activity score, % at 18.7 µM; S. cerevisiae UUG-firefly luciferase reporter, luminescence/redox ratio;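 active = replicate mean at a twofold rise or more, about +100% in these data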;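 also: firefly luciferase made from a UUG start codon reports start codon fidelity; reporter light over untreated wells divided by growth signal over untreated wells; some hits fall short of that in this replicate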
Rce1 inh = yeast Rce1p protease inhibitors, primary screen, biochemical, fluorescence, cell-free homogeneous. CAAX prenyl protease 2 (Saccharomyces cerevisiae (strain ATCC 204508 / S288c)), Q03530. yeast membranes, quenched prenylated peptide cleavage fluorescence. calls only. 290,000 tested, 0.27% active. AID 2563, 2010;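 active = fall in fluorescence gain of 50% or more versus controls, with final raw signal at or below 3038400; inconclusive = same 50% fall but final raw signal above 3038400; inactive = fall in fluorescence gain under 50%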;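 also: plate controls were neutral control wells for no effect and wells lacking membranes for full effect; tested at 10 µM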
Target sequence (Q03530 whole entry, looked up): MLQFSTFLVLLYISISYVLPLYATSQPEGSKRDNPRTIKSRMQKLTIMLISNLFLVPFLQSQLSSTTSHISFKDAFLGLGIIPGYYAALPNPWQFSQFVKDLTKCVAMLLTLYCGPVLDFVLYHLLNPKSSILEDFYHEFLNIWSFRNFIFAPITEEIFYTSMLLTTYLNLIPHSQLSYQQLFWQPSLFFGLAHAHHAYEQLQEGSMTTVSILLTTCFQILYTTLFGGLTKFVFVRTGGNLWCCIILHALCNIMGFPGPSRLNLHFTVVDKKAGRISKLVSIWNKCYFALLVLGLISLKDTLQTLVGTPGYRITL
HIV Env fusion = inhibitors of HIV-1 Env-driven cell-cell fusion, primary screen, HeLa-JRFL effector, CEM21 target cells, luciferase; inhibition, % at 12.3 µM; 360,000 tested, 1.1% active;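 active = mean replicate inhibition score of at least 50 and every replicate individually at or above 50; inconclusive = only one of the two criteria met; inactive = mean below 50 and not all replicates reaching 50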;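 also: 0% = plate neutral controls and 100% = maraviroc near 300 nM; one replicate is shown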
CSC inhib = cancer stem cell viability inhibitors, primary screen, luminescence; cancer stem cell-like cells viability; inhibition, % at 7.5 µM; 300,000 tested, 1.1% active; AID 2717, 2010;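 active = mean at 75% or more and at least half the replicates too; inconclusive = mean and replicates disagree; tested in HMLE shEcad cells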;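 also: 0% = median of negative and 100% = median of positive control wells; the first replicate is given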
eIF4H FP inh retest = second read-out of eIF4H FP inh, no call of its own (marks repeat the call); inhibition, %; compound at 20 µM; confirmation average;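 mean of two retest wells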
PABP FP inh retest = also measured in PABP FP inh; calls as there; inhibition, %; compound at 20 µM; confirmation repeats;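 mean of two retest wells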
MT1-MMP act inh RFP = second read-out of MT1-MMP act inh, no call of its own (marks repeat the call); RFP signal change, %; measured here: RFP expression control read;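 0 = vehicle wells; hits needed this value within 50% of zero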
* = called active by the depositor; i = inactive; ? = inconclusive; . = no result given.

SMILES | PABP FP inh | eIF4H FP inh | MT1-MMP act inh | MT1-MMP act inh RFP | UUG fidelity | Rce1 inh | HIV Env fusion | CSC inhib | others
O=C(NCC1CCCO1)C1CCCN1C(=O)Nc1ccc(Cl)c(Cl)c1 (stereo unspecified) | 1 | 4 | 1 | 2 | -1 | i | -12 | 6
CCOCCCNC(=O)c1c(-c2ccccc2)noc1C | -2 | -5 | -11 | 5 | -1 | i | -163 | 5
Cc1ccc(S(=O)(=O)N2CCC(C(=O)Nc3cccnc3)CC2)cc1 | . | . | -1 | 1 | -11 | . | -6 | -12
OC(c1ccc(Cl)cc1)c1ncc(-c2ccccc2Cl)[nH]1 (stereo unspecified) | . | . | 4 | -9 | -18 | . | 8 | .
CCCCCN1CC(O)=C(c2nc(-c3ccc(Cl)cc3)cs2)C1=N | 12 | 13 | 16 | 4 | . | i | -45 | .
CCC(C(=O)NCCc1ccc(OC)cc1OC)n1nc(C)n2c(cc3occc32)c1=O (stereo unspecified) | 5 | -8 | 1 | 2 | -7 | i | 19 | -2
CCn1c(SCC(=O)Nc2ccc(F)cc2)nc2ccccc2c1=O | -2 | -9 | 2 | 1 | . | i | -4 | 7
Cc1ccc2oc3c(c(=O)c2c1)C(c1cccc(Cl)c1)N(CCCN1CCOCC1)C3=O (stereo unspecified) | 4 | -3 | 0 | 1 | -11 | i | -25 | -15
O=C(CN1CCC(NC(=O)c2ccccc2F)CC1)Nc1ccc2c(c1)OCO2 | -3 | 0 | 3 | 6 | . | i | 18 | -1
CCOC(=O)CCC(=O)Nc1ccccc1C(N)=O | -6 | -1 | 3 | 3 | -5 | i | 0 | 7
O=C(/C=C/c1ccccc1)N1CCCN(C(=O)/C=C/c2ccccc2)CC1 | 2 | -3 | 1 | 5 | 2 | i | -33 | -12
CSc1ccccc1NC(=O)CN1CCCCC1 | -5 | -7 | -3 | 2 | . | i | 10 | 49
COc1cc(/C=c2/sc3nc(-c4ccccc4)c(-c4ccccc4)n3c2=O)cc(OC)c1OC | 0 | -7 | 1 | 5 | . | i | -6 | 13
COc1ccccc1NC(CC(=O)c1ccccc1)C(=O)OCC(=O)c1ccc(Br)cc1 (stereo unspecified) | -1 | -3 | 0 | 5 | -24 | i | -69 | -21
CCN(CC(=O)NCc1ccc(F)cc1)CC(O)COCc1cccc(OC)c1 (stereo unspecified) | 4 | -2 | -5 | 1 | -14 | i | . | -2
Cc1ccc(/C(O)=C/C(=O)C(=O)NNC(=O)C(O)(c2ccccc2)c2ccccc2)cc1 | 6 | 18 | 0 | 0 | -1 | i | . | 5
Cc1nc(CN2CCC(c3ccccc3)CC2)cc(=O)[nH]1 | 2 | -1 | 0 | 3 | . | i | 3 | -24
CSc1nccc(Oc2cncc(Cl)c2)n1 | -6 | 16 | -4 | -2 | . | i | 18 | 9
CC(Oc1cccc(Cl)c1)C(=O)Nc1ccc(N2CCOCC2)cc1N1CCOCC1 (stereo unspecified) | . | . | -4 | -10 | 10 | i | 16 | .
O=C(CNC(=O)c1ccc(Br)cc1)NC1=NCCS1 | -3 | -5 | 1 | 3 | -12 | i | 2 | 5
COc1cc(/C=C/C(=O)NC2CCCCC2)cc(OC)c1OC | -2 | 9 | 0 | 2 | -23 | i | -3 | -11
COc1ccccc1NC(=O)c1c([N+](=O)[O-])cnn1C | 3 | -14 | -1 | 0 | -5 | i | -87 | -8
O=C(O)/C=C\C(=O)Nc1ccc(OCc2ccccc2)cc1 | -7 | -1 | 4 | 8 | . | i | 6 | -9
c1ccc(-c2nn[nH]n2)nc1 | 1 | -5 | -3 | 0 | . | i | -4 | -6
CCc1ccc(S(=O)(=O)Nc2c(C)nn(C)c2C)cc1 | 6 | 2 | 6 | -18 | -14 | i | 33 | -2
COc1cc(NC(=O)c2cc3ccccc3o2)c(OC)cc1Br | -6 | -8 | 0 | 5 | -17 | i | . | 7
CC(C)C(c1nnnn1Cc1cccs1)N1CCN(c2ccccc2)CC1 (stereo unspecified) | -3 | -2 | -7 | -6 | -12 | i | 14 | 5
Cc1cccc(NC(=O)CN2C(=O)/C(=C3\SC(=S)N(CC4CCCO4)C3=O)c3ccccc32)c1 (stereo unspecified) | -8 | -14 | 1 | 0 | -2 | i | . | 7
O=C(NCc1cccnc1)c1cc(S(=O)(=O)N2CCOCC2)c(Cl)cc1Cl | . | . | 2 | -1 | -12 | i | 2 | .
Cc1ccc(S(=O)(=O)N2CCCc3ccccc32)cc1C | 0 | 0 | -3 | -4 | -33 | i | 7 | 9

Random excerpt: two entries already listed.
SMILES | PABP FP inh | eIF4H FP inh | MT1-MMP act inh | MT1-MMP act inh RFP | UUG fidelity | Rce1 inh | HIV Env fusion | CSC inhib | others
CC(C)C(c1nnnn1Cc1cccs1)N1CCN(c2ccccc2)CC1 (stereo unspecified) | -3 | -2 | -7 | -6 | -12 | i | 14 | 5
c1ccc(-c2nn[nH]n2)nc1 | 1 | -5 | -3 | 0 | . | i | -4 | -6

The listing continues:
SMILES | PABP FP inh | eIF4H FP inh | MT1-MMP act inh | MT1-MMP act inh RFP | UUG fidelity | Rce1 inh | HIV Env fusion | CSC inhib | others
N=c1n(Cc2ccccc2)c2ccccc2n1CC(O)COc1ccccc1 (stereo unspecified) | -3 | -15 | -8 | -8 | -12 | i | -71 | -19
Cn1c(=O)c2ncn(CC(=O)N=Nc3c(O)[nH]c4ccccc34)c2n(C)c1=O | -6 | -1 | . | . | . | i | . | 4
CC(C)n1c(=O)[nH][nH]c1=S | 3 | -8 | -2 | 3 | -13 | i | 25 | -31
CCc1ccc(NS(=O)(=O)c2cc3[nH]c(=O)c(=O)[nH]c3cc2C)cc1 | 2 | -17 | -2 | -3 | -3 | i | -4 | -10
Cn1nc(C(=O)Nc2ccc(S(=O)(=O)N3CCCCC3)cc2)ccc1=O | 12 | -2 | 3 | -6 | -7 | i | 23 | -11
COCCn1c(SCC(=O)NC2CCCCC2)nnc1-c1ccco1 | 2 | -14 | -2 | -5 | -9 | i | 3 | -12
COc1cccc(NC(=O)CN(C)CC(=O)NC(C)c2ccccc2)c1 (stereo unspecified) | 1 | 3 | -2 | -4 | . | . | 6 | -14
Cc1nc2ccccc2n1CCOc1ccccc1 | 11 | 8 | 1 | -20 | -21 | i | -7 | 12
Cc1ccc2c(CSc3nc4nc(C)cc(C)n4n3)cc(=O)oc2c1 | -5 | 5 | 1 | 5 | 3 | i | . | -9
COc1ccc(CNC(=O)C2CCC(CNc3nc(=S)[nH]c4ccccc34)CC2)cc1 (stereo unspecified) | -4 | 3 | . | . | . | . | . | 53
Cc1cccc(C)c1Nc1nnc(SCc2cc([N+](=O)[O-])cc3c2OCOC3)s1 | -5 | -12 | 1 | -6 | -18 | i | . | 13
C=CCOC(=O)C1=C[C@@H](C2CCCCC2)C[C@@H](OCc2ccc(CO)cc2)O1 | 2 | 1 | -1 | -8 | -21 | i | 13 | -5
O=C(NCCCN1CCCC1=O)c1ccc2c(=O)n(-c3ccc(F)cc3)c(=S)[nH]c2c1 | -7 | -1 | . | . | . | i | 15 | -10
CCOc1ccccc1N(C)C(=O)c1cn(CC)c(=O)c2cc(OC)c(OC)cc12 | -1 | -4 | -1 | -1 | -18 | i | -9 | .
CCOC(=O)C1=C(Cc2ccc(F)cc2)C(=O)c2ccccc2C1=O | 7 | 5 | -76 | 88 | . | i | 3 | -3
COCCCNC(=O)c1cc(S(=O)(=O)N2CCC3(CC2)OCCO3)ccc1F | . | . | -1 | 2 | -27 | . | 9 | .
O=C(/C=C/c1ccccc1)NCc1ccc2c(c1)OCO2 | -4 | -5 | 3 | -2 | -9 | i | 4 | -3
CN1CCN(C(=O)CCc2nc(-c3ccc(Cl)cc3)no2)CC1 | -12 | 2 | 1 | 1 | -23 | i | 11 | 45
O=C(CN1CCN(Cc2ccccc2Cl)C1=O)NC1CCCCCCC1 | 1 | -4 | -7 | -5 | 3 | i | . | -2
CCOc1ccc(N(CC(=O)NCc2cccs2)S(=O)(=O)c2c(C)noc2C)cc1 | 0 | -2 | -4 | -8 | -19 | i | 4 | -4
CCOC(=O)c1c(NC(=O)c2cc3n(n2)C(C(F)(F)F)CC(c2cccs2)N3)sc(C)c1C (stereo unspecified) | 5 | 4 | -4 | -4 | -6 | i | 1 | 2
NS(=O)(=O)c1cc(C(=O)N=Nc2c(O)[nH]c3ccccc23)ccc1Cl | 14 | 55 | -3 | -2 | -8 | i | 0 | -8 | eIF4H FP inh retest=16;PABP FP inh retest=33
NC(=O)C1CCN(C(=O)c2cc3n(n2)C(C(F)(F)F)CC(c2ccco2)N3)CC1 (stereo unspecified) | -8 | 5 | 7 | 4 | -9 | i | 2 | -9
Cc1nn(CC(=O)c2ccc(Cl)cc2Cl)c(C)[n+]1N | -10 | -13 | -1 | 1 | . | i | 3 | 21
COc1ccc(-c2c(-c3ccc(S(C)(=O)=O)cc3)sc3ccc(OC)cc23)cc1 | . | . | -14 | -5 | -18 | . | -1 | 16
COc1ccc(OCC(=O)N/N=C/c2ccc(N(C)C)cc2)cc1 | -3 | 7 | -5 | 4 | -11 | i | -8 | -10
O=C(NCC(=O)N(c1ccc(F)cc1)C(C(=O)NCC1CCCO1)c1ccccc1)c1ccco1 (stereo unspecified) | 4 | 6 | 2 | 2 | -12 | i | -82 | 0
Cn1c(=O)n(/N=C/c2ccccc2)c2ccccc21 | 0 | 2 | -1 | 2 | . | i | -16 | -9
CNc1c(NS(=O)(=O)c2ccc(Cl)s2)c(=O)oc2ccccc12 | -7 | -6 | -3 | 1 | -21 | i | 5 | -6
C[C@H](NC(N)=O)C(=O)OCC(=O)Nc1ccc(OC(F)F)cc1 | -3 | -1 | -6 | 1 | . | i | -4 | 1
COc1ccc(CN(CCC(c2ccccc2)c2ccc(OC(C)C)cc2)C(=O)CCl)cc1OC (stereo unspecified) | 22 | -13 | -33 | -36 | 1 | i | . | ?
COc1cccc(CNC(=O)CN(c2ccc(C(C)C)cc2)S(=O)(=O)c2c(C)noc2C)c1 | 7 | 0 | -6 | -6 | -3 | i | 0 | 7
O=C(O)c1c(NC(=O)c2cccc3ccccc23)sc2c1CCC2 | 18 | 15 | 1 | 5 | -4 | i | -46 | 2
COc1ccc(N2CCN(Cc3nc4c(c(=O)[nH]c(=O)n4C)n3CC(C)=O)CC2)cc1 | 12 | 14 | -3 | 0 | -10 | i | -2 | -5
O=C(O)COCC(=O)N1CCc2c([nH]c3ccccc23)C1C(F)(F)F (stereo unspecified) | 6 | 4 | 1 | 1 | 3 | i | 16 | -2
Cc1cccc(NS(=O)(=O)c2cc(C(=O)N3CCCCCC3)ccc2C)c1 | -8 | -8 | -3 | -2 | -4 | i | -18 | 4
O=CNc1c(Cl)cc2c(c1Cl)Cc1cc([N+](=O)[O-])ccc1-2 | . | . | -6 | -5 | -9 | . | 23 | .
N#C/C(=C\c1ccc(-c2ccccc2)cc1)c1nc(-c2ccco2)cs1 | -11 | -4 | 1 | 5 | . | i | 11 | -3
